# D2 potentiator: D2 dopamine receptor (human) potentiation | P14416 | HEK293 T-REx D2, calcium flux, EC20 dopamine potentiation | potentiation, % at 10 µM | hit rate 0.34% among 340,000 | AID 485347;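 active means potentiation over 3 SD above the plate norm, cut at about 30% in these data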; further: 0% is about no effect
# Target sequence (P14416 whole entry, looked up): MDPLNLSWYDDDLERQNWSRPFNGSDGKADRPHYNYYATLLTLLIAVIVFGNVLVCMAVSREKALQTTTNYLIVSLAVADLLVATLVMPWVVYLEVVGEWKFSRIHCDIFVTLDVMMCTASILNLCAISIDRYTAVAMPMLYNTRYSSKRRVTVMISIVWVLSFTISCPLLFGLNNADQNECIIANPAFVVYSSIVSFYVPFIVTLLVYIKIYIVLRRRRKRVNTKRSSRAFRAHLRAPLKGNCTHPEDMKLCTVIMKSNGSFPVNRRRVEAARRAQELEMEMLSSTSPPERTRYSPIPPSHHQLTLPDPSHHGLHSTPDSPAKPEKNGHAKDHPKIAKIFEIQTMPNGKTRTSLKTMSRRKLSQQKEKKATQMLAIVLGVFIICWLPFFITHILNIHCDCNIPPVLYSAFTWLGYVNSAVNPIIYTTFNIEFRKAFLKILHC
#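 Tetracycline-induced Hek293 Trex D2 cells, force-coupled to calcium, loaded with no-wash calcium dye. Compound added with 180 s kinetic read for agonism, then EC20 dopamine and a further 180 s read for potentiation.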
# LDHA block: inhibitors of human lactate dehydrogenase A; P00338; purified LDHA, NADH/diaphorase-resazurin fluorescence; active compounds read low; activity change, % (values are at about 110 or 230 µM); hit rate 0.15% among 480,000; AID 1347041; in the data active means activity change below about -30%; inconclusive means mostly about -25% to -30%;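 further: plate controls were DMSO wells for no effect and wells without enzyme for full effect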
#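 Human LDH5 at 2 nM final in Tris HCl pH 7.4 with 0.06 mM NADH and 0.2 mM pyruvate, reacted 5 minutes at room temperature. Remaining NADH coupled via diaphorase/resazurin; resorufin fluorescence read at 0 and 20 minutes, normalized to enzyme-free and DMSO wells.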
# Glioma ERSR ind: induces the endoplasmic reticulum stress response in human glioma cells; U87-MG GRP78 promoter luciferase reporter, 16 h; Potency, µM, for the others: top-dose activation, hits mostly activators; hit rate 0.02% among 420,000; AID 602332; further: potency means the concentration at half of the fitted maximal effect; series mostly up to about 76 µM; % of control where 0% means no effect; nearly all actives have a fitted effect of over 35% in size
#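 ERSR induction read as luciferase luminescence (Bright-Glo, 10 min at room temperature) in stably transfected human U87-MG glioma cells exposed to compounds for 16 h, using GRP78 as sensor.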
# D1 antag: antagonists of human D1 dopamine receptor | activity change, negative = inhibition, % at 10 µM | hit rate 3.2% among 360,000 | HEK293 TREx D1 cells, calcium flux, dopamine EC80; active compounds read low; in the data active means activity change below about -30%; further: on the % scale 0 is the no-effect control and ±100 the full control effect
#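 Antagonism measured as reduced calcium response to an EC80 dopamine addition following 180 s compound pre-read; cells were inducible HEK293 Trex D1 plated overnight at 30 C, read kinetically at 1 cycle/sec.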
# Vif-APOBEC3G blk: blocks the Vif interaction with human APOBEC3G | Potency, µM (top dose mostly 46.1 µM), without a hit: at the top dose activity, negative = active, usual class: inhibitors | Q9HC16 | hit rate 0.076% among 410,000 | AID 602310 | HeLa A3G-eYFP + Vif (tagged APOBEC3G with the HIV-1 protein that degrades it), YFP fluorescence, overnight;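 further: potency means the concentration at half of the fitted maximal effect; on the % scale 0 is the no-effect control and ±100 the full control effect; nearly all actives have a fitted effect of over 60% in size; hits raise eYFP signal because A3G escapes Vif-driven loss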
# Target sequence (Q9HC16 whole entry, looked up): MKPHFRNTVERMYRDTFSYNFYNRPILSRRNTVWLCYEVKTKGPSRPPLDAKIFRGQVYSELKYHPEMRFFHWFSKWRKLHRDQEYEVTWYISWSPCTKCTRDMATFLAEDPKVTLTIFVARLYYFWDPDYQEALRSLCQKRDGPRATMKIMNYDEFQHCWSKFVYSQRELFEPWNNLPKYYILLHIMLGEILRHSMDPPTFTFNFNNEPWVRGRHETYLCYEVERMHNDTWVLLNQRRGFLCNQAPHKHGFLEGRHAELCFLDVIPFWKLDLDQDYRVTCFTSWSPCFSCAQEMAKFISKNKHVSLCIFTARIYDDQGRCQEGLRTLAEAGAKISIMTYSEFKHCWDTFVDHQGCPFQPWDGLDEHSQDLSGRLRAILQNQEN
#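 Read-out is eYFP fluorescence (Ex 488/Em 500-530) from Vif-expressing HeLa A3G-eYFP cells; more signal means A3G escaped Vif-mediated degradation. Cells plated overnight, compound pinned in, incubated overnight at 37 deg C.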
# Vif-APOBEC3F blk: inhibitors of Vif-A3F interaction. HeLa A3F-eYFP + Vif (tagged APOBEC3F with the HIV-1 protein that degrades it), YFP fluorescence increase. AID 602313. Potency, µM (doses to about 46.1 µM), for the others: top-dose activity, negative = active. hit rate 0.2% among 390,000; further: potency means the concentration at half of the fitted maximal effect; % of control where 0% means no effect; nearly all actives have a fitted effect of over 65% in size
#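 Fluorescence increase (Ex 488/Em 500-530) after overnight compound treatment at 37 deg C flags inhibition of Vif-driven A3F-eYFP loss in stable HeLa A3F-eYFP/Vif cells seeded overnight beforehand.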
# D1 PAM: potentiators of human D1 dopamine receptor; P21728; HEK293 TREx D1 cells, calcium flux, dopamine EC20 potentiation; potentiation, % at 10 µM; hit rate 0.036% among 360,000; AID 504651; in the data active means potentiation above about 30%; further: 0% is about no effect
# D1 ag: human D1 receptor agonism | P21728 | HEK293 T-REx D1 cells, calcium flux, agonist mode | activation, % at 2 µM | hit rate 1% among 360,000 | AID 504660; in the data active means activation above about 30%; further: 0% is about no effect
#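 Tetracycline-induced HEK293 TREx D1 cells, force-coupled to calcium signalling, were dye-loaded with a no-wash calcium kit. Compound was pin-added after a 10 s baseline. Fluorescence was read kinetically at 1 cycle/s for 180 s, with calcium rises flagged as agonism.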
# Active calls of the source: *; ? = inconclusive; / = not tested or not shown; & = joins results of further samples. Unless noted, the call rests on the fitted dose curve; in most records, active means well fitted curve in the direction sought with a large enough effect; inconclusive means small, poorly fitted or top-dose-only effect, or another doubt; inactive means no such curve, though single readings can be large; an effect the other way counts as inactive or inconclusive.
SMILES	D2 potentiator	LDHA block	Glioma ERSR ind	D1 antag	Vif-APOBEC3G blk	Vif-APOBEC3F blk	D1 PAM	D1 ag
Cc1cccc(NC(=O)c2sc3ncn(CC(=O)N4CCN(c5ccccn5)CC4)c(=O)c3c2C)c1	-2	-1	2%	0	3%	2%	-5	5
CCOC(=O)c1cnc(C(C)(C)C)[nH]c1=O	-34	-4	3%	18	0%	1%	8	0
Cc1cc2nnc(SCC(=O)NCC3CCCO3)n2c2ccccc12 (centres undefined)	3	-5	3%	-7	2%	-1%	6	2
Cc1nnc(N2C(=O)C(=O)/C(=C(/O)c3ccc4c(c3)OCCO4)C2c2ccc(F)cc2)s1 (centres undefined)	8	1	5%	-2	2%	0%	-6	5
COc1ccccc1Cn1c(=S)[nH]c2ccc(F)cc2c1=O	6	-6	-3%	-7	-3%	?	-3	1
CC(C)c1c(O)nc(SCCC(=O)O)[nH]c1=O	-8	-15	-1%	-7	4%	1%	0	1
CCOC(=O)c1ccc(NC(=O)C(CC)Sc2nnc3c4ccccc4n(C)c3n2)cc1 (centres undefined)	2	-11	-3%	13	-8%	-7%	-1	6
CCc1ccc(CNC(=O)C2CCN(C(=O)c3ccc(-n4c(C)cc5ccccc54)s3)CC2)cc1	-3	-5	-4%	13	0%	1%	-4	5
COC(=O)CCC(=O)OC1(C)C(=O)C=C2C=C(C3CC3)N(Cc3ccccc3)C=C2C1=O (centres undefined)	-5	15	-1%	-22	2%	-3%	0	9
O=C1OC(c2ccc(Cl)cc2)=N/C1=C\C=C\c1ccco1	2	-1	0%	-8	5%	2%	-3	2
O=c1c2cc(N3CCOCC3)ccc2[nH]c(=S)n1CCN1CCCC1	-6	-2	-3%	-7	1%	-4%	-4	0
N#CC1=C(O)CCCn2c1nc1ccccc1c2=O	3	-9	?	4	1%	7%	1	3
CCOC(=O)CSc1ccc2nnc(-c3cccnc3)n2n1	-1	-2	-3%	-27	-1%	5%	-14	0
O=C1C(=O)N(Cc2cccnc2)C(c2cccc(Br)c2)/C1=C(/O)c1ccc2c(c1)OCO2 (centres undefined)	8	0	-1%	-10	1%	3%	1	2
Cc1cccc(NC(=O)Cn2nc(-c3ccc(Cl)cc3)c3ccccc3c2=O)c1	15	-6	1%	7	4%	-26%	-4	36*
O=C1Nc2c(c(=O)[nH]c(=O)n2-c2ccccc2)C(C(F)(F)F)(C(F)(F)F)N1	6	-2	-3%	-11	3%	-5%	-2	3
Cc1c(Cl)cccc1NC(=O)c1cc2nc(-c3ccc4c(c3)OCO4)cc(C(F)(F)F)n2n1	13	-8	-2%	2	2%	-17%	1	2
CCOC(=O)c1cc(C(=O)OCC)c(=O)[nH]c1N1CCCCC1	-2	-1	-2%	-6	-3%	3%	0	-1
CC(=O)Nc1ccc(NC(=O)CSc2nnc(-c3cccs3)n2C)cc1	/	-18	-1%	1	0%	-9%	-3	0
Cn1c(SCCOc2ccccc2Cl)nnc1-c1ccncc1	12	-2	-3%	-1	0%	-4%	5	3
Cc1ccc(C)c(-c2cc(C(=O)Nc3nccs3)c3ccccc3n2)c1	-4	-4	-1%	-10	-6%	-3%	-7	2
Cc1cc2nc3s/c(=C/c4ccc(-c5ccccc5C(=O)O)o4)c(=O)n3c2cc1C	-6	4	2%	-38*	-20%	?	-2	142*
Cc1nc2ccn(Cc3cccnc3)c(=O)c2cc1C(=O)Nc1ccc(F)cc1F	-6	-1	-1%	-15	1%	0%	-7	2
CSc1ncccc1C(=O)N(C)CC(=O)Nc1cccc(F)c1	0	-6	-3%	4	0%	-14%	-1	1
CC(NC(=O)c1cc(-c2ccccc2)on1)c1ccccc1 (centres undefined)	1	1	-6%	13	0%	-3%	-13	94*
CCOC(=O)c1c(NC2=NS(=O)(=O)c3ccccc32)sc2c1CCC(C)C2 (centres undefined)	2	-7	-6%	-5	0%	-15%	-7	5
O=C(NCc1ccc(F)cc1)c1cnc2sccn2c1=O	-3	-2	-1%	-3	0%	-1%	-6	3
CCOC(=O)c1c(NC(=O)C(C)N2CCN(S(=O)(=O)c3cccs3)CC2)sc2c1CCC(C)C2 (centres undefined)	7	-2	-4%	9	1%	-11%	1	-1
Cc1ccc(C(C)(C)C)cc1S(=O)(=O)Nc1nc2ccccc2nc1Cl	3	-3	-2%	-17	-7%	-7%	2	6
CCCCNc1nc2c(S(=O)(=O)c3ccccc3)nnn2c2ccccc12	-2	0	-2%	4	0%	2%	-3	6
Cc1nc(SCC(=O)NCC2CCCO2)c2oc3ccccc3c2n1 (centres undefined)	0	-3	-3%	-2	-4%	-7%	4	0
N#Cc1c(C(F)(F)F)cc(-c2ccc(F)cc2)nc1SCC(=O)Nc1ccccc1	2	-15	-3%	-2	7%	10%	-4	18
Cc1ccc(NC(=O)c2nc(-c3ccncc3)no2)c(Cl)c1	3	-2	-5%	-47*	4%	0%	-4	12
CCc1ccc(NC(=O)c2sc3nc(C)c(Cl)c(C)c3c2NC(=O)c2ccccc2)cc1	-5	3	0%	7	-2%	-3%	-2	-1
CCCNC(=O)c1cc(-c2ccccc2)c(N2CCCCC2)s1	-6	-3	-8%	-3	0%	0%	0	1
CCc1cccc(C)c1NC(=O)CSc1nnc(CC)n2c1cc1occc12	3	2	-5%	7	1%	3%	0	1
N#CC(c1ccccn1)(c1ncc(C(F)(F)F)cc1Cl)N1CCOCC1 (centres undefined)	/	-11	-3%	/	1%	-2%	/	/
CCc1ccc(NCc2cc3c(C)nn(-c4ccccc4)c3[nH]c2=O)cc1	-4	8	-5%	-2	-28%	1%	10	2
COC(=O)C1C(O)=C(C=Nc2cccc3ccccc23)C(=O)CC1(C)C (centres undefined)	-21	19	-4%	-3	-5%	4%	2	0
Cc1c(C(=O)c2ccccc2C(=O)O)sc2ccccc12	11	-5	-6%	9	-4%	-6%	-1	1

# Pulled one by one from above (two):
SMILES	D2 potentiator	LDHA block	Glioma ERSR ind	D1 antag	Vif-APOBEC3G blk	Vif-APOBEC3F blk	D1 PAM	D1 ag
O=C1Nc2c(c(=O)[nH]c(=O)n2-c2ccccc2)C(C(F)(F)F)(C(F)(F)F)N1	6	-2	-3%	-11	3%	-5%	-2	3
O=C1C(=O)N(Cc2cccnc2)C(c2cccc(Br)c2)/C1=C(/O)c1ccc2c(c1)OCO2 (centres undefined)	8	0	-1%	-10	1%	3%	1	2

# Next entries:
SMILES	D2 potentiator	LDHA block	Glioma ERSR ind	D1 antag	Vif-APOBEC3G blk	Vif-APOBEC3F blk	D1 PAM	D1 ag
O=C(c1ccco1)N1CCN(c2ncnc3sc4c(c23)CCC4)CC1	-1	2	-6%	-20	3%	-6%	-7	3
CCOc1ccc(C(=O)Nc2c(C(=O)Nc3ccccc3F)oc3ccccc23)cc1OCC	-2	-4	-1%	9	4%	3%	-3	0
Cc1cc(N2C(=O)C(O)=C(C(=O)c3cccs3)C2c2ccc(F)cc2)no1 (centres undefined)	4	3	-2%	-21	0%	14%	5	1
O=C(Nc1cccc(OCc2cc(=O)n3c4c(sc3n2)CCCC4)c1)c1ccc(F)cc1	-2	1	0%	-31*	-2%	-20%	-6	-1
COC(=O)C1=NN(c2ccc(OC)cc2)C2C(=O)N(c3ccccc3OC)C(=O)C12 (centres undefined)	-6	-2	-5%	-23	0%	15%	-1	9
CCn1c(COc2ccc(C)cc2)nnc1SCC(=O)Nc1ccc(S(N)(=O)=O)cc1	-1	-2	-4%	-4	0%	3%	-6	4
CN1CCN(c2oc(/C=C/c3ccccc3)nc2C#N)CC1	-4	-3&-10	-3%	-21	-2%	-11%	-7	0
CC(NC(=O)Cc1cccs1)c1ccccc1 (centres undefined)	/	-3	-2%	3	0%	4%	-4	1
CC1(OC(=O)CCc2ccccc2)C(=O)C=C2C=C(c3ccsc3)OC=C2C1=O (centres undefined)	8	/	/	-8	/	/	-1	4
COc1cccc(Cn2c(=O)n(Cc3ccco3)c(=O)c3oc4ccccc4c32)c1	-8	1	-4%	20	-1%	10%	-2	0
COC(=O)c1cc2ccsc2n1Cc1cccc(F)c1	/	-2	-5%	-17	?	-2%	-8	3
CC(C)OC(=O)CCCN1C(=O)c2ccc(N)cc2C1=O	2	-7	-6%	-10	1%	21%	-2	2
CC1=CC(C)(C)Nc2ccc(OC(=O)c3cccnc3)cc21	15	21	-8%	-15	?	?	1	0
Cc1nn(-c2ccccc2)c2nc(C3CC3)cc(C(=O)Nc3cccc(F)c3)c12	-4	-3	-5%	-6	-2%	-2%	-3	7
CCOC(=O)c1csc(-c2sccc2Br)n1	-1	-1	-7%	7	0%	-3%	7	3
CSc1sc(C(=O)NCC2CC2)c2c1S(=O)(=O)N(C)c1ccccc1-2	-5	1	-3%	9	2%	11%	-1	5
N#CCCN1CCN(C(CNS(=O)(=O)c2ccc(Cl)cc2)c2ccccc2)CC1 (centres undefined)	8	-3	-2%	-5	-1%	/	-3	2
CCOC(=O)c1ccc(NC(=O)c2c(NC(C)=O)sc3c2CCC(C)C3)cc1 (centres undefined)	-6	0	-3%	-4	1%	1%	-1	3
CCCOc1ccc(C2C(C(=O)c3cc4ccccc4o3)=C(O)C(=O)N2c2cc(C)on2)cc1 (centres undefined)	2	4	5%	-7	1%	-11%	3	7
COc1ccc(-n2c(-c3cccc(OC)c3)nc(=S)c3c2CCCC3)cc1	25	6	4%	9	1%	-3%	1	2
Cc1ccc(Cn2c(=O)n(Cc3ccccc3Cl)c(=O)c3cccnc32)cc1	9	-7	-3%	13	0%	1%	-6	2
COc1ccccc1N1C(=O)C2C(C(=O)c3ccccc3)=NN(c3ccc(C)cc3)C2C1=O (centres undefined)	5	-11	-4%	11	?	?	1	150*
Cc1cc(C)c2nc(SCC(=O)NCC3CCCO3)c(C#N)cc2c1 (centres undefined)	17	-13	1%	1	3%	0%	0	8
CCc1ccc(N2C(=O)C3ON(c4ccccc4)C(c4ccco4)C3C2=O)cc1 (centres undefined)	-3	1	5%	8	-6%	-12%	-1	6
CC(NC(=O)C1CCN(C(=O)c2ccc(-n3ccc4ccccc43)s2)CC1)c1ccccc1 (centres undefined)	-4	-10	-2%	9	0%	5%	3	4
CC(=O)Nc1cccc(C2=CC(c3ccco3)n3ncnc3N2)c1 (centres undefined)	-2	/	/	2	/	/	0	14
CCc1ccccc1OCC(=O)Nc1cccc(S(=O)(=O)NC2=NCCCCC2)c1	/	-1	-3%	-11	-18%	-7%	-3	2
O=C(CSc1ccc2nnc(-c3cccnc3)n2n1)N1CCc2ccccc21	6	/	/	-8	/	/	-12	3

# Screening data (PubChem BioAssay)

# A portion of the library. The share of hits here may be higher or lower than overall.
